Compound activity deposited in PubChem by National Center for Advancing Translational Sciences (NCATS).
VDR inh = inhibitors of human vitamin D receptor | actives 0.93% (n = 400,000) | VDR-SRC2-3 peptide fluorescence polarization, 2 h | Potency, µM, for inactives: max response, negative = inhibition, actives largely listed as inhibitors; active = well fitted inhibition curve with a large enough effect; inconclusive = small, poorly fitted or top-dose-only effect, or another doubt; inactive = no such curve, though single readings can be large or run the other way; also: series mostly up to about 120 µM
Target sequence (P11473 whole entry, looked up): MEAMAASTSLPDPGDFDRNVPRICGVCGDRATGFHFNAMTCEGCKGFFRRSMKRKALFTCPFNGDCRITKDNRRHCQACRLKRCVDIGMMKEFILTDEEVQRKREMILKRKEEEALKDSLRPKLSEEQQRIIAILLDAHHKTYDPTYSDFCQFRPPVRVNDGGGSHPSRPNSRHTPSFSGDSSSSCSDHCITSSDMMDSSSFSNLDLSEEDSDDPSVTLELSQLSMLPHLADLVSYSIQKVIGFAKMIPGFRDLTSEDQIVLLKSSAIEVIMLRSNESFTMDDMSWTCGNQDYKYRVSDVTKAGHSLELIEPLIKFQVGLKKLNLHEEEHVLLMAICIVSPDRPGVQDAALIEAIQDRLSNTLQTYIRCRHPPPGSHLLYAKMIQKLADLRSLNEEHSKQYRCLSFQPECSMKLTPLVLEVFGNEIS
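Fluorescence polarization assay of small-molecule disruption of VDR binding to coregulator peptide SRC2-3. Compounds and controls pin-transferred, then read after 2 h incubation at ambient room temperature.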
* marks the source's active call; other numbers are inactive results; ? = inconclusive; & = joins results of further samples; ! = not active in a repeat. % is scaled to controls: 0 for no effect and ±100 for the full control effect; potency is read from the fitted curve at half-maximal effect. Some of the compounds tested; count on the stated rates, not on these rows.

SMILES	VDR inh
CCn1c(COc2c(C)cccc2C)nnc1SCC(=O)N1CCN(c2ccccc2)CC1	27%
Nc1ccc(S(=O)(=O)NCc2ccccn2)cc1	-14%
CS(=O)(=O)c1ccc(Cl)c(NC(=O)COC(=O)c2c(Cl)cccc2Cl)c1	-1%
Cc1cccc(NC(=O)CNC(=O)c2ccco2)n1	-15%
COC(=O)c1cc(CNC(=O)c2ccc(S(=O)(=O)N(C)c3ccccc3)cc2)ccc1OC	-3%
CCC1CCCCN1CCCNC(=O)Cn1cnc2sc(C)c(S(=O)(=O)N3CCC(C)CC3)c2c1=O (stereo not given)	4%
CCCCC1CCCOC(C(=O)NCCNCCO)(C(F)(F)F)C1 (stereo not given)	2%&-28%
COc1ccc(/C=N\NC(=O)c2ccccc2[N+](=O)[O-])cc1COc1c(F)c(F)c(F)c(F)c1F	9%
O=C(CSc1ccccn1)N/N=C/C=C/c1ccccc1	-5%
Cc1cc(C)cc(NC(=O)CCn2c(=O)c3cccn3c3ccccc32)c1	-21%
Cc1cc(C)cc(-n2ccnc2SCC(=O)Nc2nc3ccc(C)cc3s2)c1	1%
CCOC(=O)c1nnn(-c2nonc2N)c1CNc1ccc(C)c(Br)c1	-4%
CCN(C(=O)CSc1nc2ccccc2n1C)C1CCS(=O)(=O)C1 (stereo not given)	-8%
CCOC(=O)/C(Sc1nc(-c2ccccc2)cc(-c2ccccc2)c1C#N)=C(\C)O	-15%
CCc1cccc(NC(=O)Cn2cc(C=O)c3ccccc32)c1	-11%
O=C(CSCc1ccc(C(=O)O)cc1)Nc1ccccc1	5%
COc1ccccc1N(CC(=O)NC(C)(C)C)C(=O)CCC(=O)Nc1ccccn1	7%
CCOc1ccc(C(=O)NC(=S)Nc2ccccc2N2CCC(C)CC2)cc1[N+](=O)[O-]	8%
O=C(C[C@@H]1C/C=C/CC[C@H](Cc2ccc(F)cc2)C(=O)OCCNC1=O)N[C@H](CO)Cc1ccccc1	25%
CC(=O)c1ccc(OCC(O)CN2C(C)(C)CC(O)CC2(C)C)cc1 (stereo not given)	8%
COC(=O)c1cc(NS(=O)(=O)c2ccc(N3CCOCC3)c([N+](=O)[O-])c2)cc(C(=O)OC)c1	-2%
COc1ccc(N(C(C)=O)c2nc(C)cc(C)c2C#N)c(OC)c1	16%
c1ccc(-c2nccnc2-c2ccccc2)cc1	-5%
C=CCOC(=O)N[C@H](/C(C(=O)OC)=C(\C)NCc1ccccc1)c1cccc(F)c1	-13%
Cc1noc2ncnc(NCCc3ccccc3)c12	4%
(list continues)
SMILES	VDR inh
N/C(=N\OC(=O)COc1ccccc1Cl)c1ccc(Cl)cc1	-5%
CC(Sc1nnc(COc2ccc(Cl)cc2)n1Cc1ccccc1)C(=O)O (stereo not given)	-19%
Cc1nn(C(C)C(=O)N2CCN(c3ccc(F)cc3)CC2)c(=O)c2c1sc1ccccc12 (stereo not given)	-1%
CCc1ccc(NC(=O)CN(c2ccc(C)cc2)S(=O)(=O)c2cccs2)cc1	-4%
COC(=O)c1ccccc1NC(=O)Cn1nc(C)c2nn(-c3ccc(Cl)cc3)c(C)c2c1=O	7%
Cc1cc(NC(=O)CCCN2C(=O)c3cccnc3C2=O)no1	-19%
O=C(NC(=S)NC1CCSC1=O)c1ccccc1 (stereo not given)	-1%
COc1cccc(OC)c1OCCCCN1CCCCC1	1%
O=C1COc2ccc(S(=O)(=O)N3CCN(c4ccccc4)CC3)cc2N1	5%
Cc1c2cnn(CC(=O)NCc3ccc(F)cc3)c(=O)c2c(C)n1Cc1ccccc1Cl	17%
COc1cccc(/C=C/c2nc(C#N)c(NCC(C)C)o2)c1	-24%
COC(CNC(=O)c1ccc2c(c1)ncn2-c1cccc(C)c1)OC	5%
CCc1ccc2oc(C(=O)Nc3cc(Cl)ccc3OC)cc(=O)c2c1	6%
Cc1ccc2c(CC(=O)Nc3c(C)n(C)n(-c4ccccc4)c3=O)coc2c1	-3%
C#CCOCCOCCOCCNc1nc(N2CCN(C(=O)CCCCCCCCCCNC(=O)[C@H](CCCCN)n3cc(CCCC(=O)O)nn3)CC2)nc(N2CCN(C(=O)CCCCCCCCCCNC(=O)[C@H](CCCCN)n3cc(CCCC(=O)O)nn3)CC2)n1	?
CCCCn1c(N)c(N(Cc2ccccc2OC)C(=O)COc2cc(C)ccc2Cl)c(=O)[nH]c1=O	7%
CN(C(=S)NC(=O)C12CC3CC(CC(C3)C1)C2)c1ccc(O)cc1	?
CCc1ccc(NC(=O)C(=O)N/N=C(\C)CC(=O)Nc2ccccn2)cc1	-3%
Cc1ccc2cccc(SCC(=O)NCC#N)c2n1	4%
CCOC(=O)c1sc2ccccc2c1NC(=O)c1coc2ccccc2c1=O	2%
CCN1CSC(=S)N(Cc2ccc(OC)cc2)C1	?
CN(C(=O)c1c[nH]c2ccc(S(=O)(=O)Nc3cccc(C(F)(F)F)c3)cc2c1=O)C1CCCCC1	11%
CCC1=C(OC(=O)N(CC)CC)N2C(=O)OC(=NCc3ccccc3)[C@]2(C)[C@H]2C1=CC[C@H]1C(=O)N(CC(=O)OC)C(=O)[C@H]12	-8%
COC(=O)c1c(C(=O)OC)c2n(c1C)Cc1ccccc1C2	-3%
O=C(NN=C1CCCC1)c1cc(O)cc(O)c1	-11%
Additional results follow.
SMILES	VDR inh
CCC(C)n1c(=N)c(C(=O)NCc2ccccc2)cc2c(=O)n3cc(C)ccc3nc21 (stereo not given)	-11%
Cc1c(C)n(C)c2ccc(C(=O)N3CCN(c4ccccn4)CC3)cc12	14%
CC12CCC(=O)N1C(C(=O)Nc1ccc(F)cc1)CS2 (stereo not given)	7%
CC(C)[N+]1=C2C=CC=CC=C2SC12C([N+](=O)[O-])=CC(=[N+]([O-])[O-])C=C2[N+](=O)[O-] (stereo not given)	-8%
CCN(CC)CCn1c(NCc2cccc(OC)c2)nc2ccccc21	1%
CO[C@H]1/C=C/O[C@@]2(C)Oc3c(C)c(O)c4c(O)c(c5c(c4c3C2=O)NC2(CCN(CC(C)C)CC2)N=5)=NC(=O)/C(C)=C\C=C\[C@H](C)[C@H](O)[C@@H](C)[C@@H](O)[C@@H](C)[C@H](OC(C)=O)[C@@H]1C	40µM*!
COc1ccc(NS(=O)(=O)c2ccc(N3CCOCC3)c(NC(=O)c3ccc(OC)cc3)c2)cc1	6%
O=C(COc1ccc(Br)cc1)N1CCC(c2ccccc2)C1 (stereo not given)	8%
CCN1CCN(C(=S)Nc2ccc(Cl)cc2Cl)CC1	-6%
O=C(CSc1nnc(-c2ccco2)n1-c1ccccc1Cl)Nc1cccc(C(=O)O)c1	7%
O=C(COc1ccccc1)Nc1nc2c(s1)CCCC2	-4%
CCOc1ccccc1NC(=O)c1nc(S(=O)(=O)Cc2cccc(C)c2)ncc1Cl	16µM*
O=C(CCNC(=O)c1ccc(Br)o1)NCc1ccc(Cl)cc1	3%
O=C(NNC(=O)C1[C@H]2CCCC[C@@H]12)c1ccc(=O)oc1 (stereo not given in full)	-6%
Cc1ccc(S(=O)(=O)n2cc(-c3ccccc3)c(N)n2)cc1	-5%
Cc1ccc(C)c(-c2cc(C(=O)NNC(=S)NCC(C)C)c3ccccc3n2)c1	-13%
CCOc1ccc(C(=O)NCC(=O)NNC(=O)c2ccco2)cc1OCC	-5%
Cc1c(NC(=O)C(C#N)=C2CCCCC2)c(=O)n(-c2ccccc2)n1C	-5%
O=C(Nc1cccc(S(=O)(=O)N2CCOCC2)c1)C1COc2ccccc2O1 (stereo not given)	-5%
CC(C)[C@H](N)c1cn([C@@H](CC(N)=O)C(=O)N2CCNCC2)nn1	-2%
c1ccc(OCc2nc(-c3cccs3)no2)cc1	10%
COc1ccc(OC)c(S(=O)(=O)NC2CCN(Cc3ccccc3)CC2)c1	-13%
O=C(CSc1nnc(-c2cccs2)n1-c1ccccc1)c1ccc2c(c1)OCCO2	5%
COc1ccccc1CNC(=O)CCS(=O)(=O)c1ccc(Cl)cc1	-2%
CC1CCC2(CC1)OCC1(CCC3(COC4(CCC(C)CC4)OC3)C1=O)CO2 (stereo not given)	-1%
Next structures
SMILES	VDR inh
COc1cc(OC)c(-n2c(C)cc(C=O)c2C)cc1Cl	-15%
COc1cc(C(=O)NCc2ccccc2)cc(Br)c1OC	6%
CCC(C)c1c(N)n(S(=O)(=O)c2ccc(C)cc2)oc1=O (stereo not given)	-4%
CCC1Oc2ccc(C)cc2N(CC(=O)NCCCN2CCCCC2CC)C1=O (stereo not given)	-11%
Cc1nn2c(=O)cc(COC(=O)c3ccccc3NC(=O)C(C)Oc3ccccc3)nc2s1 (stereo not given)	21%
COc1ccc(N(CCCN2C(=O)c3cccc4cccc(c34)C2=O)C(=O)c2cccs2)cc1	7%
O=C(NCCc1ccccc1)C(=O)c1c[nH]c2ccccc12	3%
Cc1ccc(N(C)S(=O)(=O)c2ccc(C)cc2)cc1	-19%
CC(Sc1nnnn1-c1ccccc1)C(=O)NC1CCCC1 (stereo not given)	-3%
O=C(Nc1c(C(=O)N2CCCCC2)cnn1-c1ccccc1)c1ccco1	6%
COc1cccc(C(=O)OCC(=O)c2ccc(S(=O)(=O)N3CCCCC3)cc2)c1OC	-20%
CCN(C(=O)c1cn(C)c(=O)c2ccccc12)c1ccccc1F	5%
Cc1cc(-c2ccccc2)n2ncc(-c3ccccc3)c2n1	-19%
Cc1cccc(Cn2c(NCC(C)O)nc3c2c(=O)n(C)c(=O)n3C)c1 (stereo not given)	-8%
CCN(C(=O)CSc1nc2scc(-c3ccccc3)c2c(=O)n1C)C1CCS(=O)(=O)C1 (stereo not given)	0%
CCc1cc2c(=O)c(-c3nc4ccccc4n3C)c(COCC(=O)O)oc2cc1OC(=O)C(C)(C)C	-14%
C/C(=N\Nc1cc(Cl)nc(C)n1)c1ccc(Cl)c(Cl)c1	0%
Oc1ccc(Cl)cc1Nc1nc2ccccc2n2cnnc12	-6%
COC(=O)CCC(=O)NNC(=O)CCC(=O)Nc1cccc(Cl)c1C	-2%
Cc1cc(Cl)ccc1NC(=S)NCc1ccc(Cl)cc1	-6%
O=C(CC(c1ccccc1)c1ccccc1)Nc1ccc(C(=O)O)cc1	8%
CC(=O)c1sc2c(c1N)c(=O)[nH]c(=O)n2-c1ccccc1	-8%
Cc1nnc(NC(=O)c2ccc(F)c(S(=O)(=O)N3CCCCC3)c2)s1	-21%
COc1ccccc1C1SCCN1S(=O)(=O)c1cccc(C(F)(F)F)c1 (stereo not given)	5%
COc1ccc(CNC(=O)Cn2nc(N3CCN(c4ccccc4)CC3)ccc2=O)c(OC)c1	5%

Filtered by structure: the compounds so far with a Cl atom (17)
SMILES	VDR inh
CS(=O)(=O)c1ccc(Cl)c(NC(=O)COC(=O)c2c(Cl)cccc2Cl)c1	-1%
N/C(=N\OC(=O)COc1ccccc1Cl)c1ccc(Cl)cc1	-5%
CC(Sc1nnc(COc2ccc(Cl)cc2)n1Cc1ccccc1)C(=O)O (stereo not given)	-19%
COC(=O)c1ccccc1NC(=O)Cn1nc(C)c2nn(-c3ccc(Cl)cc3)c(C)c2c1=O	7%
Cc1c2cnn(CC(=O)NCc3ccc(F)cc3)c(=O)c2c(C)n1Cc1ccccc1Cl	17%
CCc1ccc2oc(C(=O)Nc3cc(Cl)ccc3OC)cc(=O)c2c1	6%
CCCCn1c(N)c(N(Cc2ccccc2OC)C(=O)COc2cc(C)ccc2Cl)c(=O)[nH]c1=O	7%
CCN1CCN(C(=S)Nc2ccc(Cl)cc2Cl)CC1	-6%
O=C(CSc1nnc(-c2ccco2)n1-c1ccccc1Cl)Nc1cccc(C(=O)O)c1	7%
CCOc1ccccc1NC(=O)c1nc(S(=O)(=O)Cc2cccc(C)c2)ncc1Cl	16µM*
O=C(CCNC(=O)c1ccc(Br)o1)NCc1ccc(Cl)cc1	3%
COc1ccccc1CNC(=O)CCS(=O)(=O)c1ccc(Cl)cc1	-2%
COc1cc(OC)c(-n2c(C)cc(C=O)c2C)cc1Cl	-15%
C/C(=N\Nc1cc(Cl)nc(C)n1)c1ccc(Cl)c(Cl)c1	0%
Oc1ccc(Cl)cc1Nc1nc2ccccc2n2cnnc12	-6%
COC(=O)CCC(=O)NNC(=O)CCC(=O)Nc1cccc(Cl)c1C	-2%
Cc1cc(Cl)ccc1NC(=S)NCc1ccc(Cl)cc1	-6%
